YopH PTP inh – YopH (Yersinia) phosphatase inhibition. AID 898. actives 0.16% (n = 140,000). fluorescence Ex485/Em525. inhibition, %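 (about 10 µM by stock and volumes)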;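 active = inhibition of 50% or more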;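 also: controls were vehicle for no effect and minimum signal wells for full effect; inactives centre near -20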
Mtb growth – M. tuberculosis H37Rv growth inhibitors, H37Rv strain (AID 1626); M. tuberculosis H37Rv growth inhibition; higher % means a stronger effect; inhibition, % at 10 µM; hits with a dose series show IC50 in µM; actives 0.95% (n = 220,000);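 active = confirmed in a dose series; inconclusive = inhibition above 80% but not taken into the dose series; inactive = below 80% or under 30% at every dose of the series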;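 also: bacteria incubated seven days before Alamar blue readout; 0% = bacteria only wells and 100% = bacteria with antibiotic wells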
Mtb bLac sens – beta-lactam sensitization of Mtb H37Rv. AID 434955. actives 0.27% (n = 330,000). M. tuberculosis H37Rv growth with meropenem, percent inhibition; hits of this screen are not shown here. inhibition, % at 25 µM;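 active = about 74% or more and at least 40 points above the plate without the antibiotic, then above 30% in a dose series; inconclusive = first-round hits that could not be retested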;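 also: growth measured after seven days incubation then overnight dye step; 0% = bacteria only wells and 100% = bacteria with antibiotic; twin plates without the antibiotic show which effects depend on it; some results filed as inactive read as strong as hits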
RecA intein inh – inhibitors of M. tuberculosis RecA intein splicing; P9WHJ3; cell-free RecA intein splicing, fluorescence; inhibition, %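 (about 9 µM by stock and volumes)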; actives 0.75% (n = 290,000); in the data active = inhibition above about 30%; inconclusive = no clear call, values can overlap the other calls;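 also: 0% = vehicle wells and 100% = reference inhibitor control wells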
Target sequence (P9WHJ3 whole entry, looked up): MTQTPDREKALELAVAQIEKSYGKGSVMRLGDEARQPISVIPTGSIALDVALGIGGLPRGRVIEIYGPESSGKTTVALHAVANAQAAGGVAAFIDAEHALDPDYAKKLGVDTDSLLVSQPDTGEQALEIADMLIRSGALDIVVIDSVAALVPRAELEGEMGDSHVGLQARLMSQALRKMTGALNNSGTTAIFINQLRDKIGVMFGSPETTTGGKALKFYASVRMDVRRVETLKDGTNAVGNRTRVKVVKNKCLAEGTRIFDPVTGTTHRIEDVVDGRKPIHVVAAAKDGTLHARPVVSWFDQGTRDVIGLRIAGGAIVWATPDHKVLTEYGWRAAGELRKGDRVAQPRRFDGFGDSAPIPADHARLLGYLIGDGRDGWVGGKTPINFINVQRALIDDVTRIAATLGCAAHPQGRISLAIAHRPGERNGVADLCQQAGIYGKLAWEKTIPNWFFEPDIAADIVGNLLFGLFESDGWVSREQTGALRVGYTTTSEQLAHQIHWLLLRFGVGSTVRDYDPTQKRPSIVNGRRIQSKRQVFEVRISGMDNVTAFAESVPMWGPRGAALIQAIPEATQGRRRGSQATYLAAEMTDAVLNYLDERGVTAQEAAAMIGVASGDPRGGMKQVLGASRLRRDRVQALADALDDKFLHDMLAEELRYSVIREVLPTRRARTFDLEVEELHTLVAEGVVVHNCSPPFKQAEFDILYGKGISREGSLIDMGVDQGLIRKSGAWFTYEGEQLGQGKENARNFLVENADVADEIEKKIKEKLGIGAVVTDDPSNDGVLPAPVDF
Arbovirus anti – antivirals against arbovirus infection; actives 0.37% (n = 200,000); inhibition, % at 10 µM; arbovirus infection cell-based antiviral screen;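 active = inhibition from about 30%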;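 also: bluetongue infection of BSR cells; cell survival read as ATP light after 72 h; 0% = infected wells without compound and 100% = uninfected wells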
Arbovirus anti repeat – also measured in Arbovirus anti; calls as there; inhibition, %; measured here: 10K subset replicate screen; many hits read low in the repeat;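 first of two repeat runs on a subset; 0% = infected and 100% = uninfected wells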
An asterisk follows results filed as active; ? = inconclusive; . = no result given.

SMILES	YopH PTP inh	Mtb growth	Mtb bLac sens	RecA intein inh	Arbovirus anti	others
CN(C)c1ccc(C(c2nnnn2C(C)(C)C)N2CCc3ccccc3C2)cc1 (stereo not drawn)	-35	-3%	.	-0.2	7
COc1ccc(CC(=O)NCc2cccc(CNC(=O)Cc3ccc(OC)c(OC)c3)c2)cc1OC	.	.	-5	1.3	.
COc1cccc2c1OCC(C(=O)OCc1cccnc1)=C2	.	-2%	-7	-2.7	2
CCN(c1cccc(C)c1)c1ncnc2nc[nH]c12	-14	6%	-1	1.7	8	Arbovirus anti repeat=8
CC1=N/C(=C/c2cccnc2)C(=O)O1	.	-6%	-1	-5.5	-1
Cc1nc2ccccn2c1C(=O)NCc1ccc2c(c1)OCO2	3	1.6µM*	24	-0.5	13
COC(=O)c1c(NC(=O)C(C)C)sc2c1C(C(=O)OC)CC2 (stereo not drawn)	0	-5%	-3	3.0	-2
COc1ccc(C(=O)Nc2cccc(C(=O)N3CCCC3)c2)cc1	19	2%	-3	3.8	5
COc1cc(/C=N/N(C)C)cc(Br)c1O	.	-2%	-8	-0.5	.
O=c1oc2ccccc2c(O)c1C(c1ccccn1)c1c(O)c2ccccc2oc1=O	.	0%	-6	-4.2	.
O=C1CC(c2ccccc2)C(C(=O)Nc2ccccc2F)N1 (stereo not drawn)	-19	.	8	-0.2	10	Arbovirus anti repeat=1
O=C(C1CCN(C2CC(=O)N(c3ccc(F)cc3)C2=O)CC1)N1CCOCC1 (stereo not drawn)	-18	1%	4	2.2	3
O=C(NCCc1c[nH]c2ccccc12)/C(=C/c1cccnc1)NC(=O)c1ccco1	.	-1%	-7	-1.0	-3
CCc1ccc(C(=O)COC(=O)C(CCSC)NC(=O)C23CC4CC(CC(C4)C2)C3)cc1 (stereo not drawn)	-19	-2%	1	0.4	-1
CCN(CC)S(=O)(=O)c1ccc(NC(=S)Nc2ccccc2)cc1	.	.	5	1.1	.
CCOC(=O)c1c[nH]c2c(C)ccc(Cl)c2c1=O	.	-5%	6	-1.8	-2
COc1ccccc1C(=O)Nc1ccc(C(=O)c2ccccc2)cc1	.	7%	-1	-0.3	-17
CCOc1ccccc1NC(=O)c1nc[nH]c1C(=O)Nc1ccccc1OCC	3	1%	5	-3.0	-6
CCc1ccc(N(C(=O)CNC(=O)c2cccs2)C(C(=O)NC(C)(C)C)c2cc(OC)c(OC)c(OC)c2)cc1 (stereo not drawn)	-6	2%	-2	-1.8	-3
COc1ccc(-c2csc(NC(=O)CN3C(=O)NC4(CCCC4)C3=O)n2)cc1	.	.	-2	-0.6	.
CCCOc1ccccc1OCC(=O)Nc1ccc(S(=O)(=O)N2CCCC2)cc1	.	.	-10	4.0	.
Cc1ccc(CNC(=O)C2CCCN(S(=O)(=O)c3ccc(F)cc3)C2)cc1 (stereo not drawn)	.	.	-1	-1.4	.
COc1ccccc1S(=O)(=O)CC(O)COc1ccc(F)cc1Cl (stereo not drawn)	.	2%	7	1.7	-3
CCCC(=O)Nc1nc(-c2ccc(Cl)s2)cs1	.	8%	1	3.9	14
Fc1ccc(CNc2ncnc3cc(Cl)ccc23)cc1	.	.	6	0.6	.
CCCCn1nnc(NC(=O)c2ccc(-c3ccccc3[N+](=O)[O-])o2)n1	.	9%	-8	4.4	-3
Cc1ccc(NC(=O)C2C(C(=O)O)C3C=CC2C32CC2)cc1 (stereo not drawn)	-22	7%	-20	-0.7	-7
Cc1nc(NCCc2cnc[nH]2)c2oc3ccccc3c2n1	-4	-2%	7	-0.8	10
CC(NS(=O)(=O)c1ccc(Cl)cc1)C(=O)Nc1ccc2c(c1)OCCO2 (stereo not drawn)	.	.	8	2.7	.
COc1ccc(C2=NN(C(=O)CN3CCCCC3)C(c3ccc(OC)cc3)C2)cc1 (stereo not drawn)	.	4%	-2	0.5	.
O=C(/C=C/c1ccc(Cl)cc1)N1CCN(c2ccc([N+](=O)[O-])c(N3CCOCC3)c2)CC1	-27	-4%	-6	0.0	19
COc1ccc(-c2cc(C(=O)N3CCCC3)no2)cc1OC	.	.	3	1.8	.
CC(=O)N(C(C)=O)n1c(/C=C/c2cccc([N+](=O)[O-])c2)nc2ccccc2c1=O	.	-2%	6	-7.0	-9
CCOC(=O)c1cc2sccc2n1Cc1ccccc1	-22	-4%	64	16	0
O=C1/C(=C\c2ccc(-c3ccccc3[N+](=O)[O-])o2)C(c2ccccc2)=NN1c1ccccc1	-26	-2%	0	15	5
CCCCN1C[C@H](C)[C@@H](CC(=O)NCc2ccccc2)C1=O	.	.	-3	-4.7	.
COc1ccccc1OCC(=O)Nc1ccc(S(=O)(=O)Nc2cc(C)on2)cc1	.	.	-6	0.0	.
CCOc1cc(N2CCOCC2)c(OCC)cc1NC(=O)Cc1cccc(OC)c1	18	-1%	-1	-3.8	8
CC(C)(/C=N/O)/[N+]([O-])=C/c1ccco1	-50	-7%	-6	-3.9	1
CC(C)OP(=O)(CCP(=O)(OC(C)C)OC(C)C)OC(C)C	.	0%	-8	-1.3	.
Cc1cccc(NC(=O)c2nc[nH]c2C(=O)N[C@@H](C)C(=O)OCc2ccccc2)c1	.	60µM*	61	0.3	.
CC12CCC(C(=O)NNc3ccc([N+](=O)[O-])cc3)(CC1=O)C2(C)C (stereo not drawn)	4	?	96	-0.5	-9
O=C(c1cc(-c2ccccc2Cl)on1)N1CCCC1	.	.	8	-1.6	.
Cc1ccnc(NS(=O)(=O)c2ccc(NC(=O)CSc3nc(-c4ccccc4)cc(=O)[nH]3)cc2)n1	.	-4%	-6	-1.0	1
COc1ccc(C(=O)NCc2ccccc2)cc1S(=O)(=O)N1CCCc2ccccc21	-12	.	-3	2.3	-14
O=C(Nc1ccc2c(c1)OCO2)c1ccc(Br)c(S(=O)(=O)N2CCCC2)c1	-26	-2%	1	5.6	-5
O=C(CSc1nnc(CNC(=O)c2ccccc2F)o1)c1ccccc1	-1	2%	4	-1.9	-5
CCN(CC(=O)Nc1ccccc1C(F)(F)F)C(=O)CCc1c(C)[nH]c(=O)c(C#N)c1C	.	.	1	0.1	.
CC(=O)c1ccc(NC(=O)C2CCCN2S(=O)(=O)c2ccc(C)cc2)cc1 (stereo not drawn)	-32	-11%	-9	0.7	-4
CC(C)CNC(=O)c1cccc(NC(=O)c2ccc(Cl)c([N+](=O)[O-])c2)c1	-31	11%	9	2.7	-4
O=C(Nc1nnc(SCc2ccc(F)cc2)s1)c1ccc2ncsc2c1	-25	8%	.	18	-8
Cc1ccc(NC(=O)Nc2cccc3ccccc23)cc1	.	.	3	-2.4	.
FC(F)(F)c1ccc(N2CCN(Cc3ccc4c(c3)OCO4)CC2)nc1	-21	7%	7	2.7	9
CC(CNS(=O)(=O)c1ccc(Cl)cc1)n1cncn1 (stereo not drawn)	.	.	7	0.1	.
COc1cc([N+](=O)[O-])ccc1NC(=O)CCCOc1ccccc1	-28	.	57	-2.2	9
O=C1NC(=Nc2ccccc2)S/C1=C\c1cccn1-c1ccccc1	-17	-9%	90	1.9	-24
Cc1cc(C)c(S(=O)(=O)NCCOc2ccccc2)c(C)c1-n1cnnn1	.	0%	-7	2.7	2
O=c1cc(O)c2ccc(O)cc2o1	.	0%	-2	-5.5	3
Cc1cccc(-c2nnc(SCC(=O)N3CCOCC3)o2)c1	.	.	-3	0.9	.
COC(=O)c1ccc(NC(=O)COC(=O)C2CCC2)cc1	.	.	-11	1.6	.

Reprinted from the part before: 2 compounds, followed by the next part.
SMILES	YopH PTP inh	Mtb growth	Mtb bLac sens	RecA intein inh	Arbovirus anti	others
Cc1cccc(-c2nnc(SCC(=O)N3CCOCC3)o2)c1	.	.	-3	0.9	.
COC(=O)c1ccc(NC(=O)COC(=O)C2CCC2)cc1	.	.	-11	1.6	.
COc1ccc2nc3sc(C(=O)NCCCN4CCc5ccccc5C4)cc3cc2c1	-2	20%	46	-3.4	-1
Cc1c(C(=O)O)oc2ccc(S(=O)(=O)N3CCC(C)CC3)cc12	-22	-11%	21	.	-1
COc1cc(-c2nnn(CC(=O)NC3CCS(=O)(=O)C3)n2)ccc1OCc1ccccc1 (stereo not drawn)	-35	-14%	-6	2.2	-1
COc1cc(C(=O)N/N=C/c2ccc(OC(=O)c3ccccc3Cl)c(OC)c2)ccc1O	.	.	41	8.1	.
COC(=O)c1cc(Br)c(=O)n(Cc2ccc(OC)c(OC)c2)c1	-38	-6%	-1	-2.7	0
CCOC(=O)Cn1c(=O)c(-c2cc(Br)ccc2N)nc2ccccc21	.	.	-3	0.4	.
O=C(O)CCN1C(=O)c2ccc(Oc3ccc([N+](=O)[O-])cc3)cc2C1=O	.	.	1	0.1	.
CCN1CCCC1CNC(=O)C(=O)NC(C)C (stereo not drawn)	.	1%	-11	-1.4	2
COc1ccc2nc(N(CCN(C)C)C(=O)/C=C/c3cccs3)sc2c1	.	6%	1	2.1	0
Cc1ccc(CNC(=O)COc2ccc(C(=O)c3ccc(F)cc3)cc2)cc1	-33	10%	48	-5.9	2
CC1=N/C(=C/c2cc(Br)cc(Br)c2O)C(=O)O1	.	.	3	-4.9	.
COCCN=C1N[C@@H](c2ccc(Br)cc2)C(C(=O)OC)=C(C)N1Cc1ccccc1	.	.	-7	3.2	.
COc1ccc(OC)c(NS(=O)(=O)c2cc(OC)ccc2OC)c1	-9	-4%	1	0.2	-2
COc1ccc(C(=O)Nc2ccc(C)cc2C(=O)c2ccccc2)c(OC)c1	-27	79%	82	12	10
CCN(CC)S(=O)(=O)c1ccc2nc(COC(=O)c3n[nH]c4ccccc34)[nH]c2c1	-40	-6%	4	-0.9	2

For convenience, 6 of the compounds above.
SMILES	YopH PTP inh	Mtb growth	Mtb bLac sens	RecA intein inh	Arbovirus anti	others
COc1ccc2nc3sc(C(=O)NCCCN4CCc5ccccc5C4)cc3cc2c1	-2	20%	46	-3.4	-1
Cc1c(C(=O)O)oc2ccc(S(=O)(=O)N3CCC(C)CC3)cc12	-22	-11%	21	.	-1
COc1cc(-c2nnn(CC(=O)NC3CCS(=O)(=O)C3)n2)ccc1OCc1ccccc1 (stereo not drawn)	-35	-14%	-6	2.2	-1
COc1cc(C(=O)N/N=C/c2ccc(OC(=O)c3ccccc3Cl)c(OC)c2)ccc1O	.	.	41	8.1	.
COC(=O)c1cc(Br)c(=O)n(Cc2ccc(OC)c(OC)c2)c1	-38	-6%	-1	-2.7	0
CCOC(=O)Cn1c(=O)c(-c2cc(Br)ccc2N)nc2ccccc21	.	.	-3	0.4	.

Additional entries:
SMILES	YopH PTP inh	Mtb growth	Mtb bLac sens	RecA intein inh	Arbovirus anti	others
CN(C)S(=O)(=O)c1cccc(C(=O)N2CCN(Cc3ccccc3)CC2)c1	-36	-6%	-9	-0.3	7
Cc1cccc(-n2ccnc2CN2CCN(C(C)C)C(CCO)C2)c1 (stereo not drawn)	.	0%	2	0.3	.
O=C(O)c1ccc(-n2cccc2)cc1O	-34	-5%	-5	-3.6	-1	Arbovirus anti repeat=1
COc1ccc(CCNC(=O)C2CCN(S(=O)(=O)c3ccc(NC(C)=O)cc3)CC2)cc1OC	.	.	4	-2.6	.
Cc1ccnc(NC(=O)C2CCN(S(=O)(=O)c3ccc(C)c(C)c3)CC2)c1	.	.	0	-3.4	.
CCOc1ccsc1C(=O)NNC(=O)c1ccco1	.	.	3	-0.2	.
COC(=O)c1ccc2c(=O)n(CCCCCC(=O)NCc3ccccc3)c(=O)[nH]c2c1	-16	-9%	3	4.0	0
C/C(=N\NC(=O)Cn1nnc2ccccc21)c1ccco1	.	-5%	-3	4.4	-1
O=C1/C(=C\c2cc3c(cc2Cl)OCO3)N2CCC1CC2	-55	14%	7	-2.5	-5
COc1cccc(C(=O)N2CCCN(C)CC2)c1OC	.	.	7	0.9	.
Cc1ccc2c(Cn3cc(C(F)(F)F)cc(Cl)c3=O)cc(=O)oc2c1	-32	3%	-1	0.6	-10
Cc1csc(NC(=O)c2cc3c(s2)CCCCC3)n1	8	16%	85	0.3	-25
Cc1cccc(N(C(=O)c2ccco2)C(C(=O)NC2CCCC2)c2cccnc2)c1C (stereo not drawn)	.	.	2	-0.2	.
COc1ccc(OC)c(/C=N/NC(=O)c2ccc(Cn3cc([N+](=O)[O-])cn3)o2)c1	-27	4%	5	-2.2	6
O=C(CCC(=O)c1ccc(F)cc1)NN1C(=O)NC2(CCCCC2)C1=O	.	.	-2	-2.1	.
CCC1CCCCN1C(=O)CSc1nc(C)cc(C)n1 (stereo not drawn)	.	3%	13	.	8
CCC(C)(C)NC(=O)CN(C(=O)CNS(=O)(=O)c1ccc(F)cc1)c1ccc2c(c1)OCCO2	.	.	2	1.9	.
COc1cc(/C=C/c2c([N+](=O)[O-])c(=O)n(C)c(=O)n2C)cc(OC)c1OC	-22	0%	6	-2.7	14
Cc1nnc(SCC(=O)NC(C)(C)C)n1NCc1c(F)cccc1Cl	.	-28%	-8	-2.9	1

Source: PubChem BioAssay

This is a subset; the hit share may differ from the screen's.
